Assay outcomes (PubChem BioAssay)
Beta cell apopt = inhibitors of cytokine-induced beta cell apoptosis, primary screen, luminescence; protection from apoptosis, % (test concentration not listed); INS-1E cytokine-induced death, ATP luminescence, 48 h; percent of positive-control rescue, neutral wells zero; hit rate 0.8% among 300,000;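 active = all replicates at 75% or more, or half of them and the mean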;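 also: 0% = cytokine-treated negative control wells and 100% = positive control rescue; higher means more ATP so stronger rescue from cytokine killing; wells of about 40 µL received 100 nL stock; the first replicate is given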
ALR inh = inhibitors of human ALR sulfhydryl oxidase, primary screen, biochemical, H2O2 detection, HRP-luminol luminescence, single point. FAD-linked sulfhydryl oxidase ALR (Homo sapiens), P55789. purified ALR, DTT oxidation. inhibition, % (test concentration not listed). hit rate 3.8% among 290,000. AID 485317, 2010;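 active = mean and each replicate at 75% or more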;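 also: stock transfer was 7.5 nL into about 7.5 µL; 0% = neutral wells and 100% = wells with inactivated enzyme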
Calb FLC = C. albicans growth inhibition with fluconazole, primary screen, CaCi-2 strain, Alamar Blue fluorescence; AID 1979, 2009; C. albicans CaCi-2 (fluconazole-resistant clinical isolate) + fluconazole, 48 h; growth inhibition, % (concentration not given with the values); hit rate 0.57% among 300,000;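 active = most replicates above 75%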;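 also: all wells also contain fluconazole at 8 µg/ml as a sub-toxic cotreatment; 0% = median of DMSO wells and 100% = median of geldanamycin control wells; wells of about 8 µL received 7.5 nL stock; the first replicate is given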
Bfl-1 A1 inh = caspase 3/7 activation in MEF A1-2A-BIM cells, primary screen, A1 inhibitor project, cell-based, luminescence, HTS. Caspase-Glo 3/7 luminescence, 3 h; percent of clofoctol response, vehicle zero. caspase activation, % (test concentration not listed). hit rate 0.066% among 330,000;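 active = over half of replicate activation scores above 10%, or exactly half above 10 with the replicate mean above 10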;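 also: wells of about 30 µL received 50 nL stock; many hits fall short of the cut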
B2AR ag = beta2AR agonists driving receptor internalization, primary screen, cell-based, FAP fluorogen, flow cytometry; Beta-2 adrenergic receptor (Homo sapiens), P07550; Am2.2-beta2AR cells; reference of the scale not given here; response, % (no concentration beside the values); hit rate 0.43% among 340,000; AID 504454, 2011;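 active = response above a set limit, near 3 SD of response in nonfluorescent compounds, cut at about 42% in these data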;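 also: stock transfer was 100 nL into about 11 µL; a reference agonist was the positive control; negative values mostly stem from fluorescent compounds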
LANA-H2B inh = blockers of LANA interaction with H2A/H2B – biochemical, FP readout, HTS, primary screen | Protein LANA1 (Human herpesvirus 8 type P (isolate GK18)), Q9QR71 | cell-free LANA-H2A/H2B peptide, fluorescence polarization | inhibition, % (concentration not given with the values) | hit rate 0.6% among 320,000 | AID 2629, 2010; in the data active = inhibition mostly above about 10%, no sharp cut-off; inactive = mostly below about 6.7%;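 also: stock transfer was 7.5 nL into about 10 µL; 0% = median of vehicle wells and 100% = median of positive control wells; one replicate is shown; the record names a cut of 25% in any replicate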
Target sequence (Q9QR71 whole entry, looked up): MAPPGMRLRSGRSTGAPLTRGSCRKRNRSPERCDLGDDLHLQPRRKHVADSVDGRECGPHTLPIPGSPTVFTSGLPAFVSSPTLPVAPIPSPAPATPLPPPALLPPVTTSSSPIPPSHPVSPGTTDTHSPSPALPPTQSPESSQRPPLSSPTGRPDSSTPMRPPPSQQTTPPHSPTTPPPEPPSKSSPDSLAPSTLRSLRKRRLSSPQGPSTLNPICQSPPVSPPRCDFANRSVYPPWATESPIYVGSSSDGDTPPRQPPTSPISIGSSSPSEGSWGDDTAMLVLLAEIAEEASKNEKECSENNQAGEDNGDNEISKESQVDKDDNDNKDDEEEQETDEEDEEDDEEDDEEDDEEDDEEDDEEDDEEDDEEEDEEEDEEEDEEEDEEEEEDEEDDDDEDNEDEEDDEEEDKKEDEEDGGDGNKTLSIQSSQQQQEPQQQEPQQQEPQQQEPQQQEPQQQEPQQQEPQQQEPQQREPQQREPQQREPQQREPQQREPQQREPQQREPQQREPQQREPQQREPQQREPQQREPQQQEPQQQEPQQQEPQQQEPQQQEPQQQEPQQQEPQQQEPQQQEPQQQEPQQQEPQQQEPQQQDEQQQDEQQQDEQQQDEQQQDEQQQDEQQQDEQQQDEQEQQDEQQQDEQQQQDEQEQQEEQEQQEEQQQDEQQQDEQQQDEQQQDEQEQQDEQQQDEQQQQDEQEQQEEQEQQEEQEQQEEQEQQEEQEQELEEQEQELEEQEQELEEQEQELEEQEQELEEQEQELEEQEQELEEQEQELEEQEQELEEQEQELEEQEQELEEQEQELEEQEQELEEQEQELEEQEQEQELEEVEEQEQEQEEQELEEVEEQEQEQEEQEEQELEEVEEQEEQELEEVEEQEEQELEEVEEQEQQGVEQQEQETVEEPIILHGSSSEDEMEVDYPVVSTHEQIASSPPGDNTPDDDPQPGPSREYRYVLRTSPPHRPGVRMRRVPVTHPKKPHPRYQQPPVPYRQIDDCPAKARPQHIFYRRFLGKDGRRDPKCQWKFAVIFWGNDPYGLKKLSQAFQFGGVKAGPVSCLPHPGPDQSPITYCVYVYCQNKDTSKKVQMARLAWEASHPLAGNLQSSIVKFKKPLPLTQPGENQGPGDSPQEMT
rRNA inh HTS = reduced GFP signal of wild-type E. coli, primary screen, bacterial rRNA inhibitor project, GFP/RFP fluorescence, OD600, single point; AID 720706, 2013; hit rate 1.6% among 350,000; E. coli WT GFP vs humanized-ribosome RFP mutants, 24 h; hits give low values; DMSO median 0, no signal -100; GFP signal change (wild-type ribosome), % (no concentration beside the values);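 active = significant combined selectivity score with lowered wild-type GFP, culture density cut under 30%, mutant RFP and density less affected; inactive = any of these conditions unmet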; also: one replicate is shown; some compounds called inactive have numbers as strong as hits
T cruzi repl = inhibitors of intracellular T. cruzi growth, primary screen, luminescence, NIH3T3 host cells | inhibition, % (no concentration beside the values) | hit rate 1.4% among 300,000 | T. cruzi beta-gal in NIH3T3, 90 h;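 active = mean inhibition across valid replicates above about 55%, limit read from the data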;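 also: signal also drops with host cell toxicity which is not excluded here; 0% = plate median of DMSO wells and 100% = zero luminescence signal; higher percent means less beta-gal luminescence so fewer parasites; stock transfer was 50 nL into about 50 µL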
rRNA inh HTS OD600 = recorded beside rRNA inh HTS, whose call it bears; OD600 change, %; measured here: OD600 growth;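 optical density of the mix in the first replicate; 0 = DMSO median and -100 = no signal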
rRNA inh HTS RFP = also measured in rRNA inh HTS; calls as there; RFP signal change, %; measured here: RFP humanized mutant strains;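 first replicate; 0 = DMSO median and -100 = no signal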
An asterisk follows results filed as active; / = not tested or not shown. An excerpt; count on the stated rates, not on these rows.

Start of the listing, in advance, 7 compounds:
cpd	Compound	Beta cell apopt	ALR inh	Calb FLC	Bfl-1 A1 inh	B2AR ag	LANA-H2B inh	rRNA inh HTS	rRNA inh HTS OD600	rRNA inh HTS RFP	T cruzi repl
1	O=C(NCc1ncc(C(F)(F)F)cc1Cl)Nc1ccccc1	-5	-8	-17	-0.5	-3	7.6	4	9	-0.3	1
2	COc1cc(OC)c(OC)cc1/C=C1\CCC/C(=C\c2cc(OC)c(OC)cc2OC)C1=O	/	/	9	/	29	/	-14	-22	3.6	59*
3	Cc1ccc(OCC(=O)N2CCOCC2)cc1C	1	-16	0	-0.3	1	3.6	9	10	-0.8	-5
4	Cc1ccc(/C=N/NC(=O)C2COc3ccccc3O2)s1 (stereo unspecified)	-1	-3	-19	0.9	-13	-1.3	-1	-4	-0.5	9
5	Cc1cccc(C(=O)NCC(c2ccc(F)cc2)N2CCOCC2)c1 (stereo unspecified)	-2	-25	-6	-0.3	2	-1.8	13	6	-6.5	-10
6	O=C(CN1C(=O)c2ccccc2C1=O)Nc1ccccc1C(=O)NC1CCCCCC1	0	-7	3	-0.1	12	1.7	1	9	2.6	-5
7	Cc1noc(-c2ccccc2)c1NC(=O)Nc1ccccc1	/	1	-10	0.1	4	-9.5	-1	5	-1.4	7

The listing, from the first entry:
cpd	Compound	Beta cell apopt	ALR inh	Calb FLC	Bfl-1 A1 inh	B2AR ag	LANA-H2B inh	rRNA inh HTS	rRNA inh HTS OD600	rRNA inh HTS RFP	T cruzi repl
1	O=C(NCc1ncc(C(F)(F)F)cc1Cl)Nc1ccccc1	-5	-8	-17	-0.5	-3	7.6	4	9	-0.3	1
2	COc1cc(OC)c(OC)cc1/C=C1\CCC/C(=C\c2cc(OC)c(OC)cc2OC)C1=O	/	/	9	/	29	/	-14	-22	3.6	59*
3	Cc1ccc(OCC(=O)N2CCOCC2)cc1C	1	-16	0	-0.3	1	3.6	9	10	-0.8	-5
4	Cc1ccc(/C=N/NC(=O)C2COc3ccccc3O2)s1 (stereo unspecified)	-1	-3	-19	0.9	-13	-1.3	-1	-4	-0.5	9
5	Cc1cccc(C(=O)NCC(c2ccc(F)cc2)N2CCOCC2)c1 (stereo unspecified)	-2	-25	-6	-0.3	2	-1.8	13	6	-6.5	-10
6	O=C(CN1C(=O)c2ccccc2C1=O)Nc1ccccc1C(=O)NC1CCCCCC1	0	-7	3	-0.1	12	1.7	1	9	2.6	-5
7	Cc1noc(-c2ccccc2)c1NC(=O)Nc1ccccc1	/	1	-10	0.1	4	-9.5	-1	5	-1.4	7
8	COc1ccc(C2c3[nH]c4ccccc4c3CCN2CCCn2cccn2)c(F)c1 (stereo unspecified)	-6	11	5	-1.8	-2	2.5	-7	-3	-6.1	15
9	O=C1c2cccc3cccc(c23)N1Cc1cccc(F)c1	3	-15	-3	0.7	-3	-2.1	-54	-75	-16	20
10	OCC1OC(Oc2cccc3ccccc23)C(O)C(O)C1O (stereo unspecified)	-5	-7	4	0.3	1	-0.4	2	9	-0.6	-11
11	CCc1ccc2[nH]c(C(=O)Nc3ccc(F)cc3Br)cc2c1	-2	1	1	-0.1	-4	4.6	12	15	0.5	-2
12	CC(NC=C1C(=O)OC(C)(C)OC1=O)C(=O)O (stereo unspecified)	-4	-3	25	-0.8	1	-8.1	17	11	1.5	55*
13	C=C1C(=O)[C@@]23[C@H](O)C[C@@H]4C(C)(C)CC[C@H](O)[C@]4(C)[C@@H]2C[C@H](O)[C@@H]1[C@H]3O	-62	14	-14	0.5	9	-0.7	8	7	3.0	24
14	O=C(Nc1nnc(C2CC2)s1)c1n[nH]c(=O)c2ccccc12	-2	/	5	-0.4	-6	1.7	-1	3	9.6	18
15	Nc1nc(Nc2ccccc2F)nc(NCCO)c1[N+](=O)[O-]	-4	-4	5	-0.1	2	-2.4	14	5	-0.6	11
16	CC(=O)Nc1ccc(S(=O)(=O)NCCC(=O)NC(C)c2cccs2)cc1 (stereo unspecified)	-2	12	/	0.6	0	-5.1	2	12	0.1	/
17	CC1CCCCN1C(=O)COC(=O)c1cccc(NS(=O)(=O)c2ccccc2)c1 (stereo unspecified)	3	-14	6	0.5	10	0.4	0	-2	0.8	0
18	COc1ccc([C@@H]2C[C@H]3CN(c4ccccc4)C(=O)[C@]34CCCN24)c(OC)c1OC	0	-5	-2	0.0	0	-0.4	5	5	-1.5	-1
19	COC(=O)C1C2C=CC3(CN(c4ccc(Cl)c(F)c4)C(=O)C13)O2 (stereo unspecified)	-1	-4	3	0.6	5	3.0	5	8	-1.5	-12
20	COc1cccc(-c2cc(C(=O)O)no2)c1	-7	-17	-17	0.7	2	2.0	/	/	/	-11
21	O=C(CSc1nnc(-c2ccco2)n1Cc1ccccc1)NC(=O)NCc1ccco1	-5	-1	5	-0.5	-14	-4.6	-20*	-7.7*	1.0*	10
22	COCCNC(=S)Nc1ccccc1Cc1ccccc1	-4	5	-18	-0.3	0	1.9	1	6	-1.3	-12
23	Cc1cc(N/N=C/c2cccc(Cl)c2)nc(NCc2ccccc2)n1	13	-17	-5	0.7	10	0.7	/	/	/	47
24	Cc1snc(S(=O)(=O)Cc2c(Cl)cccc2Cl)c1C#N	3	-39	10	-0.3	-9	-1.8	/	/	/	-12
25	Cc1ccc(NC(=O)COc2ccc(Br)cc2CO)cc1S(=O)(=O)N1CCOCC1	-6	/	/	-0.4	-6	5.1	-19	-34	-2.2	/
26	CC1(C)CC(=O)C2=C(C1)OC1OC(=O)CC21C (stereo unspecified)	-2	-15	-12	-0.5	2	1.4	22	21	2.4	-11
27	Cc1cc2cc(CNC(=O)c3cccs3)ccc2[nH]1	10	-9	7	-0.2	2	-2.9	3	8	14	9
28	CCOC(=O)Cn1c(=O)c2c(nc(Br)n2Cc2ccccc2Cl)n(C)c1=O	0	-6	-1	0.2	32	-2.0	/	/	/	0
29	CC(=O)Nc1ccc(NC(=O)c2c(C)noc2C)cc1	0	1	0	-0.9	-3	-1.4	11	11	4.5	-2
30	O=C(O)[C@@H]1[C@@H]2C[C@@H]2CN1c1ncccc1[N+](=O)[O-]	1	-30	4	1.0	-1	-0.9	14	-7	5.5	-7
31	NC(=O)c1c(NC(=O)c2ccncc2)sc2c1CCCCCC2	/	6	8	-0.2	-3	-2.7	-4	7	-2.2	12
32	O=c1[nH]c2ccccc2c(O)c1-c1ccccc1[N+](=O)[O-]	-4	-4	-7	0.4	-2	-5.2	10	4	-2.7	11
33	COC(=O)CCCC(=O)N1CCCC(C(=O)c2ccccc2SC)C1 (stereo unspecified)	1	8	13	0.3	1	0.4	11	10	3.1	-13
34	O=C(c1ccc(-n2cccn2)cc1)N1CCN(c2ncccc2C(F)(F)F)CC1	5	-1	7	0.5	-13	0.0	-4	-12	-2.3	4
35	OCC1(CCc2ccccc2)CCN(Cc2ccc(OC(F)F)cc2)CC1	/	/	-35	/	-4	/	5	-2	1.8	-9
36	CCN(CC(=O)NCc1cccs1)C(=O)c1ccc(S(=O)(=O)N(C)c2ccccc2)cc1	-6	10	/	0.3	3	0.9	/	/	/	/
37	COc1ccc(OC)c(N(/C(N)=N/c2nc(C)cc(C)n2)S(=O)(=O)c2ccc(NC(C)=O)cc2)c1	0	/	13	-0.1	-4	-3.9	2	-2	-0.4	-5
38	CC(SCc1ccccc1)C(=O)NCc1ccccn1 (stereo unspecified)	/	/	3	/	-5	/	5	2	3.4	-24
39	CCCc1nc(SCC(=O)Nc2ccccc2OC)c2c(=O)n(C)c(=O)n(C)c2n1	8	-30	-17	-0.2	0	-3.0	0	17	-8.4	1
40	Cc1c(C(=O)Nc2c(F)cc(F)cc2Br)sc2ncn(CC(=O)N3CCCC3)c(=O)c12	-4	-6	2	-0.3	13	-0.3	1	-7	0.2	-21
41	COc1cccc(C=NCC(C)N=Cc2cccc(OC)c2O)c1O (stereo unspecified)	-11	41	-4	-0.2	12	4.9	11	19	-2.6	-12
42	O=C(O)c1cn(-c2ccccc2)nc1-c1ccncc1	1	-6	3	2.2	-4	2.0	/	/	/	-12
43	C(=N\NC1=Nc2cccc3cccc1c23)/c1ccccc1	2	-1	16	-1.6	-18	-2.4	/	/	/	14
44	COc1ccc(-c2nn(-c3ccccc3)cc2CNC[C@H]2O[C@@H](n3cnc4c(N)ncnc43)[C@H](O)[C@@H]2O)cc1	-12	/	/	0.4	19	2.9	13	4	4.6	/
45	OCCN(Cc1ccccc1)Cc1ccccc1F	-6	-41	22	0.0	-1	-0.9	/	/	/	-25
46	Cc1nc2ccc(F)cc2cc1C(=O)NC(C)C	-1	-29	1	-0.4	-11	-2.7	15	11	-2.7	-11
47	COC(=O)CCCC1=CC2=CC(=O)C(C)(OC(=O)c3ccco3)C(=O)C2=CO1 (stereo unspecified)	1	/	-7	0.1	/	6.5	/	/	/	-4
48	O=[N+]([O-])c1ccc(Cl)c(/C=N/n2c(-c3ccncc3)n[nH]c2=S)c1	4	-8	23	0.9	3	-2.3	-1	-2	-1.9	-32
49	COc1ccc(Oc2nc3c(C)cccn3c(=O)c2/C=C(\C#N)C(N)=O)cc1	-6	-15	-1	-2.5	3	0.1	13	0	0.7	3
50	COc1cccc(C(=O)Nc2ccc(N3CCN(C(=O)c4cccs4)CC3)cc2)c1	7	0	-29	-0.5	3	0.8	-8	-13	-1.2	-79
51	CCc1cc(C(=O)N(CC)CC(=O)Nc2ccc(OC)cc2)sc1C	-2	/	/	-0.6	6	1.8	-1	-16	1.0	/
52	O=C(CSc1nnnn1-c1ccc2c(c1)OCCO2)OC1CCCCC1	-5	-1	/	0.3	7	-5.0	/	/	/	/
53	Cc1cc(OCC(=O)N2CCCC2)ccc1Cl	-11	-2	-5	-0.1	2	1.3	/	/	/	0
54	CC1CCN(S(=O)(=O)c2ccccc2)CC1	-9	6	-6	0.3	13	1.6	10	5	1.7	-5
55	Cn1c(NC(=O)c2ccc(F)cc2)c(-c2cccs2)c(=O)c2ccccc21	-4	/	1	0.0	-3	-1.3	-16	-37	0.6	/
56	CC(C)(C)C1CCC(=NNC(=O)C2COc3ccccc3O2)CC1 (stereo unspecified)	0	16	/	0.1	-4	7.8	6	18	-1.6	/
57	Cc1ccc2c(c1)N(CC(=O)N1CCCCCC1)C(=O)c1cccnc1O2	2	6	-4	1.8	-3	-1.4	-7	-13	0.5	-9
